High-throughput results as filed in PubChem BioAssay.
BJeLR viability: MLPCN primary cell-based screen for lethality selective to Ras in HRASV12 cells; BJeLR (HRASV12) viability, CellTiter-Glo ATP luminescence, 48 h; reference of the scale not given here; inhibition, % (no concentration beside the values); 0.17% of 300,000 active;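 active = replicate mean above 50%; inconclusive = above 50% but judged a plate artefact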;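 also: 50 nL library stock added to about 25 µL; numbers are from one replicate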
PrP UTR inh: inhibition of PrP 5' UTR reporter expression; cell-based PrP 5' UTR mRNA reporter, plate reader; inhibition, % (no concentration beside the values); 0.35% of 340,000 active; AID 488862, 2010;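 active = every replicate at 50% or more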;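 also: 0 = median of the neutral control wells; tested in H4 reporter cells; numbers are from one replicate; inactives centre near -14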
Bead autofluor: counter-screen for toxin protease inhibitors: compound fluorescence | AID 624483 | compound autofluorescence counterscreen, microsphere flow cytometry; active compounds read high | fluorescence intensity (concentration not given with the values) | 3.1% of 360,000 active;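 active = at least 3 SD above the mean of all compounds, about 16000 in these data; inconclusive = too few beads counted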;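 also: 100 nL of 1 mM stock went into each well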
Mtb hypoxia inh: PubChem AID 1159583. M. tuberculosis hypoxia-regulated fluorescent reporter, fluorescence. fluorescence inhibition, % (test concentration not listed). 0.1% of 300,000 active;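 active = 35 to 45% if threefold the growth effect, above 45% if 1.5-fold the growth effect; inactive = the rest, general growth blockers included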;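 also: wells of about 50 µL received 100 nL stock; 0% = vehicle wells and 100% = reference inhibitor wells; whole bacteria with a GFP reporter of the hypoxia response; strong numbers were not always called active; many hits fall short of the cut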
ugtP null kill: growth inhibition of ugtP-null S. aureus, primary screen, RN4220 ugtP deletion, OD600; growth inhibition, % (test concentration not listed); AID 1259309, 2017; 0.54% of 330,000 active; 16 h; some inactives read as strong as hits;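 active = z-score under -3 and OD600 up to 0.15 on both plates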;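 also: plate controls were untreated wells for no effect and antibiotic for full effect; wells of about 80 µL received 100 nL stock; the first replicate is given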
RN4220 kill: growth inhibition of S. aureus RN4220, primary screen, OD600; 16 h; inhibition, % (concentration not given with the values); 0.33% of 330,000 active;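 active = z-score of -3 or lower and OD600 up to 0.18 on both plates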;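 also: plate controls were untreated cells for no effect and reference antibiotic for full effect; stock transfer was 100 nL into about 80 µL; one replicate is shown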
Mtb hypoxia inh growth: recorded beside Mtb hypoxia inh, whose call it bears; growth inhibition, %; measured here: M. tuberculosis growth (absorbance);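 0% = vehicle and 100% = reference antibiotic; read after six days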
* marks the source's active call; other numbers are inactive results; ? = inconclusive; . = no result given.

SMILES	BJeLR viability	PrP UTR inh	Bead autofluor	Mtb hypoxia inh	Mtb hypoxia inh growth	ugtP null kill	RN4220 kill
CCOc1ccccc1N(C(=O)c1snc(C(N)=O)c1N)C(CC)C(=O)NC1CCCC1 (centres undefined)	-5.3	6.1	4607	.	.	.	.
COc1ccc(Cl)cc1NC(=O)Cn1c(C)csc1=O	.	1.5	3647	6.7	3.9	3.3	2.6
CN(CC(=O)Nc1ccccc1Cl)C(=O)COC(=O)c1nc(Cl)c(Cl)c(Cl)c1Cl	-7.6	-19.6	6525	16.3	4.9	13.5	9.4
O=C(OC1CCOC1=O)c1cccc(S(=O)(=O)Nc2cccc(Cl)c2)c1 (centres undefined)	-24.8	-14.7	1978	4.7	6.2	4.0	5.3
CCNC(=O)C(C)NC(=O)C1=NN(c2ccccc2)C(=O)CC1 (centres undefined)	-7.0	-6.1	6080	-2.5	-9.3	-0.7	3.9
CSc1ccccc1C(=O)NCCc1ccc(S(=O)(=O)N2CCCCC2)cc1	-20.0	.	11028	7.0	-6.6	0.6	-0.5
COc1cccc(/C=C2\Sc3ccc(C(=O)NCC4CCCO4)cc3N(C)C2=O)c1 (centres undefined)	0.5	-14.3	5245	-3.1	8.0	-13.6	3.1
CCN1CCN(Cc2cc(=O)oc3cc(C)cc(C)c23)CC1	4.2	-15.0	9886	5.5	10.8	2.7	2.5
N#Cc1cnn(Cc2ccccc2)c1N	9.5	-6.6	4695	.	.	0.9	3.5
CC1ON(C2CCCCC2)C2c3nc4ccccc4n3CC12 (centres undefined)	.	.	.	5.3	15.6	3.9	1.6
CC(=O)Nc1ccc(S(=O)(=O)NCCC(=O)OC(C)C(=O)NC2(C#N)CCCCC2)cc1 (centres undefined)	.	-11.4	4479	2.1	0.5	-1.1	0.3
COc1ccc2nc(SCC(=O)NN)cc(C)c2c1	-9.4	-31.9	9217	13.1	4.2	-6.9	3.3
CCOC(=O)c1nn(-c2ccc(F)cc2)c(=O)c2c(N)scc12	3.4	-12.7	4123	1.5	10.3	-0.3	4.9
N#Cc1cc2cc3c(cc2nc1SCC(=O)N1CCCC1)OCCO3	-3.6	-56.2	3271	-0.7	-1.8	4.5	3.0
Cc1cnc(C(=O)OC(C)C(=O)NCc2ccccc2)cn1 (centres undefined)	-9.5	-8.7	6641	-3.9	-3.0	-3.4	-1.7
O=C(Cn1cnc2cc([N+](=O)[O-])ccc2c1=O)Nc1cccc(S(=O)(=O)N2CCOCC2)c1	3.9	-15.9	4463	-6.2	12.0	8.0	-2.7
Cn1cc([N+](=O)[O-])c(C(=O)NN=Cc2ccc([N+](=O)[O-])cc2)n1	.	.	.	-5.6	5.3	4.3	3.6
CCOC(=O)c1cnc2c(-c3ccccc3)c(C)nn2c1N	-3.4	-31.6	6926	5.1	5.5	4.5	2.7
COc1ccc(Cn2nnnc2CN(CCCN2CCOCC2)Cc2cc3cc(OC)ccc3[nH]c2=O)cc1	9.7	-17.5	4198	9.2	8.0	1.3	1.5
CCOCCCNCc1cc(Cl)cc(Cl)c1OCC	-2.3	-6.8	6427	5.8	8.3	-1.2	4.5
OCC1(Cc2cccc(C(F)(F)F)c2)CCN(Cc2cc3ccccc3o2)CC1	-5.5	-4.0	2576	3.8	-1.9	6.3	1.7
CCOC(=O)C1(CCOc2ccccc2)CCN(Cc2cccc(OC)c2O)CC1	12.6	-5.6	4124	7.4	-2.0	13.7	3.1
COc1ccc(S(=O)(=O)Cc2ccccc2)cc1N	14.0	3.6	23710*	-14.3	-2.5	-2.3	-5.1
CCCCCCCCCCCCN1C(CC(=O)OC)c2cc(F)ccc2S1(=O)=O (centres undefined)	.	.	.	-5.5	-4.3	-2.6	-3.0
O=C(Nc1ccccc1)Oc1ccc[nH]c1=O	3.4	-30.5	3662	4.6	0.8	2.9	-0.5
CCN(C(=O)CSc1nc2ccccc2n1CC)C1CCS(=O)(=O)C1 (centres undefined)	-17.2	-2.8	4639	6.4	18.6	3.5	3.0
COC(=O)c1ccc(Cl)cc1N(Cc1c(F)cccc1Cl)S(C)(=O)=O	2.0	-13.3	.	1.6	-0.5	-5.9	-1.5
CC1CN(C(C)CO)C(=O)c2cccc(NC(=O)Cc3ccccc3)c2OC1CN(C)Cc1ccccc1 (centres undefined)	.	.	.	2.5	2.2	-25.2	21.7
Cc1ccc2nc(C(F)C(F)(F)F)[nH]c2c1 (centres undefined)	1.4	-25.7	5491	4.9	4.6	7.3	1.9
Cc1ccccc1OCC(O)Cn1c2ccccc2c2ccccc21 (centres undefined)	1.1	-16.5	13587	4.2	-4.3	62.9	34.6

Quoted at random: three entries already listed.
SMILES	BJeLR viability	PrP UTR inh	Bead autofluor	Mtb hypoxia inh	Mtb hypoxia inh growth	ugtP null kill	RN4220 kill
OCC1(Cc2cccc(C(F)(F)F)c2)CCN(Cc2cc3ccccc3o2)CC1	-5.5	-4.0	2576	3.8	-1.9	6.3	1.7
O=C(Nc1ccccc1)Oc1ccc[nH]c1=O	3.4	-30.5	3662	4.6	0.8	2.9	-0.5
Cc1ccccc1OCC(O)Cn1c2ccccc2c2ccccc21 (centres undefined)	1.1	-16.5	13587	4.2	-4.3	62.9	34.6

Going on with the list:
SMILES	BJeLR viability	PrP UTR inh	Bead autofluor	Mtb hypoxia inh	Mtb hypoxia inh growth	ugtP null kill	RN4220 kill
Cc1ccc2c(c1)/C(=N/OS(=O)(=O)c1ccccc1)CCS2	-0.4	-20.3	?	.	.	.	.
COc1ccc(Cl)cc1NC(=O)CN(C)C(=O)Cn1cnc2c1c(=O)n(C)c(=O)n2C	14.8	-2.3	4376	7.5	-2.5	7.4	1.7
Cc1cc(C(=O)NN=Cc2cccs2)no1	.	.	.	5.5	1.5	1.5	1.8
Cc1nn(-c2cccc(C(F)(F)F)c2)c(Cl)c1C=Nn1cnnc1	.	.	.	15.4	0.5	-2.5	-1.4
C#CCOCCOCCOCCNc1nc(N2CCN(C(=O)[C@H](CCC(=O)O)n3cc(C(N)CC(C)C)nn3)CC2)nc(N2CCN(C(=O)[C@H](Cc3cc4ccccc4[nH]3)n3cc(C(N)[C@H](C)CC)nn3)CC2)n1 (some centres undefined)	13.3	-7.3	3919	.	.	.	.
C=CCn1c(N)c(C(=O)Nc2ccc(C)cc2)sc1=S	6.4	-67.4	2606	0.0	6.8	-2.4	2.9
CC(C)(C)OC(=O)N1CCC(C(=O)Nc2ccc(C(=O)N3CCOCC3)cc2)CC1	.	-6.9	3100	10.8	13.4	-7.1	8.0
CCNc1nc(CN2CCCCC2)nc2scc(-c3ccccc3)c12	5.5	-17.0	4236	.	.	.	.
CCOc1ccc(S(=O)(=O)Nc2ccc(C(=O)NCC(c3ccco3)N(C)C)cc2)cc1 (centres undefined)	-4.0	-13.5	6371	1.3	2.4	8.1	-0.6
COCCN(C(=O)Nc1ccccc1)c1ccccc1	4.0	-14.6	2771	.	.	1.8	-0.2
COc1ccc(CCC(=O)N2CC(C)OC(C)C2)cc1 (centres undefined)	.	-6.3	11695	-2.3	2.8	-3.9	-0.9
COc1ccc(N2CCN(C(CNC(=O)c3cccs3)c3ccco3)CC2)cc1 (centres undefined)	2.6	-7.9	6312	12.9	-1.0	10.6	2.8
O=C1NC[C@H](Cc2ccccc2)N(CCc2cccc(F)c2)C1=O	-9.1	-13.8	3624	.	.	.	.
O=C(Nc1ccc(-n2cc(Cl)cn2)cc1)c1ccncc1	3.1	-29.0	3536	3.8	5.0	6.6	2.6
Cc1ccc(NC(=O)COC(=O)CNC(=O)c2ccco2)cc1	3.5	-45.1	3804	6.0	3.9	4.9	6.3
CN1CCc2nc(NC(=O)COc3ccc(C#N)cc3)sc2C1	3.6	-4.3	4725	14.6	13.8	7.5	5.2
CCC(=O)NNc1nc2c(F)cc(F)cc2s1	-2.8	-38.3	5047	13.5	8.0	-4.2	-13.6
NCCCCCc1nnc(SCc2ccccc2Cl)o1	-10.4	-4.3	.	-2.6	-1.3	-0.9	0.1
CCOC(=O)c1c(C)[nH]c(C)c1C(=O)COC(=O)/C=C/c1ccc(OC)cc1	.	-47.5	6623	0.1	0.5	2.1	5.7
N#CCCN(C(=O)COC(=O)CCc1c[nH]c2ccccc12)c1ccc(F)cc1	-4.2	-30.9	6292	-8.5	-2.0	-2.1	-4.2
Cc1nn(CC(=O)NCC(C)c2ccccc2)c(=O)c2cccn12 (centres undefined)	-3.9	-15.9	6828	2.1	6.6	10.2	2.7
CCCCN(C(=O)C(C)Oc1ccc(Cl)cc1)c1c(N)n(CCCC)c(=O)[nH]c1=O (centres undefined)	15.2	-20.6	5589	.	.	.	.
Clc1ccccc1OCc1nnc2n1CCCCC2	2.7	-18.4	4392	0.9	-1.2	-4.6	1.5
CN(Cc1ccccc1)C(=O)c1nc[nH]c1C(=O)N(C)Cc1ccccc1	.	-14.3	3439	5.4	7.6	-8.7	5.0
NCCCSC1=NCCCN1	-3.3	-18.7	5361	0.7	1.5	0.1	4.8
COc1ccccc1NC(=O)CNS(=O)(=O)c1ccccc1	-5.2	-19.9	21927*	4.2	4.1	-0.7	3.3
Cc1ccc(C)c(N(CC(=O)NC(C)(C)C)C(=O)CCC(=O)Nc2nccs2)c1	-2.8	-3.9	3325	-1.7	-7.9	1.4	-2.0
Cc1cc(C)nc(N(C#N)CC(=O)N2CCC(C(N)=O)CC2)n1	3.5	-15.9	3976	0.5	3.6	1.7	0.3
COc1ccccc1N1CCN(CC(=O)Nc2ccc(Cl)c(C(F)(F)F)c2)CC1	-1.3	-20.0	16616*	-8.0	2.3	-25.4	-5.7
O=C1c2ccccc2C(=O)N1CCCCCCN1C(=O)c2ccccc2C1=O	.	-12.0	3884	6.2	7.0	6.3	7.2

Reformatted: entries from further up
mol | BJeLR viability | PrP UTR inh | Bead autofluor | Mtb hypoxia inh | Mtb hypoxia inh growth | ugtP null kill | RN4220 kill
CC1ON(C2CCCCC2)C2c3nc4ccccc4n3CC12 (centres undefined) | . | . | . | 5.3 | 15.6 | 3.9 | 1.6
NCCCCCc1nnc(SCc2ccccc2Cl)o1 | -10.4 | -4.3 | . | -2.6 | -1.3 | -0.9 | 0.1
COc1ccc(S(=O)(=O)Cc2ccccc2)cc1N | 14.0 | 3.6 | 23710* | -14.3 | -2.5 | -2.3 | -5.1
N#Cc1cc2cc3c(cc2nc1SCC(=O)N1CCCC1)OCCO3 | -3.6 | -56.2 | 3271 | -0.7 | -1.8 | 4.5 | 3.0

Continued:
SMILES	BJeLR viability	PrP UTR inh	Bead autofluor	Mtb hypoxia inh	Mtb hypoxia inh growth	ugtP null kill	RN4220 kill
Cc1ccc(C(C)n2cc(C(=O)NCc3cccnc3)nn2)cc1 (centres undefined)	6.4	-18.8	3327	-0.2	-1.3	2.9	5.4
CCN(C(=O)c1ccnn1C)c1ccccc1	-8.7	-1.0	2490	17.2	9.7	8.3	3.0
CCOc1cc(N(CC)CC)ccc1/C=C(/C#N)c1nc2ccccc2[nH]1	7.6	-40.4	12266	0.1	12.0	-17.9	22.1
COc1ccc(OC)c(S(=O)(=O)N2CCC(C(=O)NCc3ccccn3)CC2)c1	-8.6	-30.2	3978	6.0	-1.8	11.5	2.6
COc1ccc(S(=O)(=O)N2CCOCC2)cc1NC(=O)CSc1nnc2c(n1)[nH]c1ccccc12	-6.5	-8.5	4474	7.9	-0.8	4.3	4.1
CC(NC(=O)CCC(=O)c1cccs1)c1ccccc1 (centres undefined)	7.0	-6.9	5317	-0.5	3.9	-0.3	-0.8
COc1cccc(CN2CC(C(=O)NCc3ccc(C)c(F)c3)CCC2=O)c1 (centres undefined)	-1.4	-15.0	3968	3.0	-5.1	6.6	1.1
Cc1cc(C)c(S(=O)(=O)Nc2ccc3c4c(cccc24)CC3)c(C)c1	42.7	75.5*	2802	9.3	8.5	9.7	21.7
Cc1cc(C)cc(NC(=O)CCCn2nc(C)c3c(C)n(-c4ccccc4)nc3c2=O)c1	0.1	-4.3	4504	-0.9	4.3	13.7	7.6
CCc1nc(Nc2cc(OC)ccc2OC)c2oc3ccccc3c2n1	-7.9	-16.4	3728	9.6	-1.1	1.2	5.8
O=C1SCC(c2ccccc2)=NN1Cc1ccccc1	9.2	-7.5	2486	2.1	6.6	13.4	3.4
Clc1ccc(Cc2noc(CN3CCN(c4ccccc4)CC3)n2)c(Cl)c1	5.2	-8.2	9502	4.0	3.8	8.4	-3.1
N#CC(c1ccccc1)c1cnccn1 (centres undefined)	-13.9	-22.0	3720	5.9	8.5	2.8	4.6
Cn1c(CCc2nc3ccccc3[nH]2)nnc1SCC#N	5.3	-6.4	3720	5.6	-1.0	2.8	2.7
COc1ccccc1NC(=O)Nc1cnccn1	-15.2	-7.9	2659	6.6	1.3	5.8	2.7

Random draw from the library, and some 4% of all compounds hit somewhere here.
